High-throughput results as filed in PubChem BioAssay.
Ba CapD inh: CapD enzyme inhibition. 140,000 compounds, 0.23% hits. purified CapD enzyme, fluorescence intensity read-out; stronger effect = lower value; some hits fall short of the stated cut. z-score (concentration not given with the values). AID 492967;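 active means z-score under -4 in either of two replicates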;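 further: stock transfer was 100 nL into about 40 µL; score is relative to mean and spread of the plate; one replicate is shown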
AID504770: E. coli YBA685 growth inhibition, screen for V. cholerae RctB inhibitors; 130,000 compounds, 0.27% hits; z-score (no concentration beside the values); E. coli YBA685 rctB-dependent plasmid, OD600 growth, 3 h; stronger effect = lower value;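 active means z-score under -2 on both plates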;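 further: wells of about 30 µL received 100 nL stock; score is relative to mean and SD of the test wells; the first replicate is given; strong numbers were not always called active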
Starred values were filed as active, the others as inactive; . = not tested or not shown; & = joins results of further samples.

Start of the data: the first 2 records, ahead of the listing:
Each structure is followed by: Ba CapD inh	AID504770
- COC(=O)c1sccc1NC(=O)NS(=O)(=O)c1ccc(C)cc1
  0.49	.
- Cc1ccc(NS(C)(=O)=O)c(C(=O)c2ccccc2)c1
  -0.88	-0.75

Main list, from the start:
Each structure is followed by: Ba CapD inh	AID504770
- COC(=O)c1sccc1NC(=O)NS(=O)(=O)c1ccc(C)cc1
  0.49	.
- Cc1ccc(NS(C)(=O)=O)c(C(=O)c2ccccc2)c1
  -0.88	-0.75
- Nc1c(-c2ccccc2)nc2sccn12
  .	1.8
- CCOC(=O)Cc1nnc2c(Nc3ccccc3Cl)nc3nonc3n12
  -0.09	.
- CCn1c(-c2ccc3c(c2)OCCO3)cnc1SCC(=O)c1ccc2c(c1)CCN2S(C)(=O)=O
  .	0.2
- Cc1ccc(C(=O)N=c2c(=O)nc(C)n(-c3ccccc3)n2C)cc1
  2.5	-0.8
- CC1CCN(S(=O)(=O)c2ccc3[nH]c(=O)cc(C(=O)NCCCN4CCOCC4)c3c2)CC1
  0.71	-0.4
- CCC1CCCCN1C(=O)c1cnn2c1NC(c1ccco1)CC2C(F)(F)F (stereo not given)
  -0.33	-0.95
- COCCn1c(=O)[nH]c2cc(C(=O)Nc3nnc(C)s3)ccc21
  .	-0.15
- O=C(COCc1cc(-c2ccco2)on1)Nc1cc(C(F)(F)F)ccc1Cl
  0.21	1.1
- O=C1CCC(=O)N1OCc1ccc(F)cc1
  -1.1	0.8
- O=c1[nH]c(CNCc2cccs2)nc2ccsc12
  .	0.55
- CCCn1c(=S)[nH]c2cc(C(=O)N3CCc4ccccc4C3)ccc2c1=O
  .	-0.55
- COc1ccccc1OCc1ccc(C(=O)N2CCc3ccccc3C2)o1
  0.16	-0.1
- COc1ccc(OC)c2c1sc(=NC(=O)C1CCCCC1)n2C
  .	-1.1
- COc1cc(OC)c(NC2=CC(=O)C(=O)c3ccccc32)cc1Cl
  29	-0.4
- COc1ccc2oc(=O)c(C(=O)Nc3ccc(O)cc3)cc2c1
  .	0.45
- CCOc1cc(/C=C2\SC(=S)N(c3ccccc3)C2=O)ccc1O
  -0.18	1.2
- CCc1ccc(NC(=O)c2noc3c2CCCC3)cc1
  -0.27	-0.55
- N#CC(C(=O)c1ccccc1Cl)=C1SCCCS1
  -2.2	2.6
- CCc1c(C#N)c(N)nc(SCC(=O)OCc2ccccc2)c1C#N
  14	-0.5
- c1ccc(CN2CCN(c3ncnc4sc5c(c34)CCCCC5)CC2)cc1
  0.47	0.55
- CCCCC1(CCCC)NC(=S)N(c2ccc(C)cc2)N1
  4.9	.
- O=C(CSC1c2ccccc2Oc2ccccc21)Nc1ccc(C(=O)O)cc1
  18	-0.6
- Cc1ccc(-c2nnnn2CS(=O)(=O)c2ccccc2)cc1
  -0.27	0.05
- O=C(OCc1csc(-c2ccccc2)n1)c1ccc(S(=O)(=O)N2CCOCC2)cc1
  .	-0.2
- Cc1[nH]n(C)c(=O)c1N=Nc1ccccc1OC(F)(F)F
  0.21	.
- Nc1nc(SCC(=O)N2CCCCC2)nc2sc3c(c12)CCCC3
  -0.15	1.1
- Clc1nc(NCc2ccco2)nc(N2CCC(Cc3ccccc3)CC2)n1
  -1.6	.
- O=C(NCn1cnccc1=O)c1ccccc1
  .	1.3
- COc1cc(/C=N/NC(=O)c2cc(Br)ccc2Cl)ccc1OCc1ccccc1
  0.77	.
- Cc1ccc(Cl)cc1N1CCN(C(=O)C2CCN(S(=O)(=O)c3cccs3)CC2)CC1
  1.1	-0.15
- CC(=O)Nc1cccc(Oc2nnc(Oc3cccc(NC(C)=O)c3)c3ccccc23)c1
  -0.16	.
- CC1CCN(S(=O)(=O)c2ccc3nc(-c4cccnc4)cc(C(=O)NCC4CCCO4)c3c2)CC1 (stereo not given)
  0.5	0.45
- Cc1ccc(NS(C)(=O)=O)cc1NC(=S)Nc1cccc(Cl)c1
  -0.43	.
- Cc1ccc2c(Cl)c(C(=O)Nc3ccc(Br)cc3Br)sc2c1
  1	.
- O=C1NC(=O)C(=Cc2cc(Br)ccc2OCc2ccc([N+](=O)[O-])cc2)C(=O)N1
  -0.58	.
- CC(O)CNC(=O)CC1(CC(=O)NCC(C)O)CCCC1 (stereo not given)
  -0.2	0.3
- COc1ccc2c(c1)-c1c(ssc1=S)C(C)(C)N2C(=O)c1ccccc1OC
  -1.4	.
- O=C(O)Cc1c(F)cccc1Cl
  .	-0.5
- CCOC(=O)C1CCN(C(=O)c2cc3ccccc3oc2=O)CC1
  1.8	0.85
- CCOC(=O)c1ccc(NC(=O)NC2CC3CCC(C2)N3Cc2nnnn2Cc2ccco2)cc1 (stereo not given)
  .	0.15
- Cc1c(C(=O)N2CCOCC2)[nH]c2ccc(OCc3ccccc3)cc12
  8.5	-0.2
- Cc1cc(F)c(F)cc1C(=O)N1CCN(C)CC1
  .	-1
- CCN(CC)C(=O)Cn1cc(SCC(=O)NC)c2ccccc21
  0.18	0.05
- CCOc1ccc(C(=O)CSc2nc3ccccc3s2)cc1
  -0.15	-0.6
- O=C1NC(=O)N(C2CCCCC2)C(=O)/C1=C/c1ccc(C(=O)O)cc1
  3.9	-0.5
- CCOC(=O)C1=C(C)N=c2s/c(=C\c3ccc(OC)c(O)c3)c(=O)n2C1c1ccccc1OC(C)C (stereo not given)
  0.02	.
- Cc1nn(CC(=O)N(C)Cc2ccccc2)c(=O)c2nn(-c3ccccc3)c(C)c12
  -0.19	-0.3
- Cc1ccc(NC(=O)CNC(=O)Cn2cnc3ccccc3c2=O)cc1F
  -1.1	1.9
- CCOC(=O)c1sc2ncn(CC(=O)OC)c(=O)c2c1C
  0.35	0.05
- COc1cccc(-n2c(/C=C3\C(=O)N(C(C)C)c4ccccc43)nc3ccccc3c2=O)c1
  0.045	.
- CCOC(=O)C1=C(O)/C(=C/c2ccc(O)c(OC)c2)SC1=Nc1ccccc1
  -1.4	.
- COc1cccc(C2c3[nH]c4ccccc4c3CCN2S(=O)(=O)c2cccc(C)c2)c1 (stereo not given)
  0.07	.
- Cc1cc(C)c(NC(=O)CSC2=C(C#N)C(c3ccc(C)o3)C3=C(CCCC3=O)N2)c(C)c1 (stereo not given)
  -0.07	.
- CCOC(=O)N1CCN(C(=O)c2ccc(CS(=O)(=O)c3c(Cl)cccc3Cl)o2)CC1
  -0.32	-0.55
- Cc1ccc(Sc2ccccc2C(=O)O)c(S(N)(=O)=O)c1
  -0.41	0.1
- N#CC(c1ccc(Cl)cc1)N1CCOCC1 (stereo not given)
  -0.54	.
- OC[C@H]1O[C@@H](Oc2ccc3ccccc3c2)[C@H](O)[C@@H](O)[C@@H]1O
  -0.01	.
- O=c1[nH]nc(CN2CCN(c3ccc(Cl)cc3)CC2)c2ccccc12
  -0.88	.

(next part)
smiles	Ba CapD inh	AID504770
NNC(=O)CC1CCS(=O)(=O)C1 (stereo not given)	.	-0.4
COC(=O)c1c(C)[nH]c(C(=O)C(C)Sc2nnc(N)s2)c1C (stereo not given)	.	-3.1
O=C(O)Cc1n[nH]c(=O)c2ccccc12	-0.17&-0.22	-0.65&1.1
COCCN(Cc1cccs1)Cc1cc(=O)oc2ccc(OC)cc12	0.5	-0.3
CC1C(c2ccccc2)=[N+]([O-])C(C)(C)N1O (stereo not given)	0.005	-0.45
CCOC(=O)C1=C(N)OC2=C(C(=O)CCC2)C1c1ccc([N+](=O)[O-])cc1 (stereo not given)	-0.45	.
COc1cc(/C=C2/N=C(c3cc([N+](=O)[O-])ccc3OC)OC2=O)ccc1OC(C)=O	-1	.
CO[C@]12C[C@@H](COC(=O)c3cncc(Br)c3)CN(C)[C@@H]1Cc1cn(C)c3cccc2c13	-1.1&-0.56	0.45
CCOC(=O)C(C)Sc1nc2c([nH]c3ccccc32)c(=O)n1C (stereo not given)	2.4	-0.15
Cc1ccc(NC(=O)c2ccc(NC3=NC4CS(=O)(=O)CC4S3)cc2)cc1F (stereo not given)	0.22	-0.9
Cc1ccc2nc(C(F)(F)F)cc(N3CCN(C(=O)OCCSCc4ccc5nonc5c4)CC3)c2c1	-0.09	.
CC1CCCCC1NC(=O)C(Cc1ccccc1)NS(=O)(=O)c1ccc2c(c1)oc(=O)n2C (stereo not given)	0.11	-0.8
O=C(NN1S(=O)(=O)c2ccccc2S1(=O)=O)c1ccc(OCc2ccccc2Br)cc1	-0.18	.
Cc1cc2nccc(C(C)Oc3ccc(Cl)cc3Cl)n2n1 (stereo not given)	-0.53	-0.7
COc1ccc(NC(=O)Nc2cc(F)cc(F)c2)cc1OC1CCCC1	0.025	0.4
N#Cc1cc([N+](=O)[O-])ccc1N1CCC(n2cccc2)CC1	-0.79	.
CCN=c1scc(CC(=O)OCC)n1-c1c(C)cc(C)cc1C	.	-0.95
CCOc1cc(C2C(C(=O)OCc3ccccc3)=C(C)NC3=C2C(=O)CC(c2cccs2)C3)cc([N+](=O)[O-])c1O (stereo not given)	-0.17	.
O=C(O)C1CC2CC(O)C1C2 (stereo not given)	-0.21	0.2
O=C(NCc1cccnc1)c1nn2c(C(F)(F)F)cc(-c3cccs3)nc2c1Br	-0.26	.
CCOC(=O)C1=C(C)NC(C)=C(C(=O)OCC)C1C(=O)OCn1nnc2ccccc2c1=O	.	0.85
CCc1ccc(-n2c(SCc3cc(=O)n4cc(Br)ccc4n3)nc3[nH]ncc3c2=O)cc1	1.1	.
O=C(NCCN1CCOCC1)OCCc1ccccc1Cl	0.46	.
Cc1ccc(OCCn2cc(Br)c(=O)[nH]c2=O)cc1	0.33	-0.55
CCC(C)c1ccc(C(=O)COc2ccc(-c3nnco3)cc2)cc1 (stereo not given)	.	-0.4
CN(C)C(=O)n1cc(C#N)c(-c2cccs2)n1	0.1	-0.4
Cc1cccc(N2CC(O)(c3cccc([N+](=O)[O-])c3)[N+]3=C2SCCC3)c1 (stereo not given)	0.36	.
CNS(=O)(=O)c1cn(CC(=O)N2CCCC2)cc1S(=O)(=O)NC	0.81	0.4
CSc1ccc(-c2ccc(SC)cc2)cc1	0.55	0.35
Cc1ccc(NC(=O)CCNS(=O)(=O)c2ccc3nc(-c4ccccc4)[nH]c3c2)cc1	4.5	-0.2

Exported field by field: four of the compounds above.
CCc1ccc(-n2c(SCc3cc(=O)n4cc(Br)ccc4n3)nc3[nH]ncc3c2=O)cc1
  Ba CapD inh: 1.1
  AID504770: .
O=C(NCCN1CCOCC1)OCCc1ccccc1Cl
  Ba CapD inh: 0.46
  AID504770: .
Cc1ccc(OCCn2cc(Br)c(=O)[nH]c2=O)cc1
  Ba CapD inh: 0.33
  AID504770: -0.55
CCC(C)c1ccc(C(=O)COc2ccc(-c3nnco3)cc2)cc1 (stereo not given)
  Ba CapD inh: .
  AID504770: -0.4

Single entries from the entries so far.
Result for O=C(NCc1cccnc1)c1nn2c(C(F)(F)F)cc(-c3cccs3)nc2c1Br under Ba CapD inh: -0.26
Result for CCC(C)c1ccc(C(=O)COc2ccc(-c3nnco3)cc2)cc1 (stereo not given) under AID504770: -0.4
Result for O=C(O)C1CC2CC(O)C1C2 (stereo not given) under Ba CapD inh: -0.21

Continuation.
smiles	Ba CapD inh	AID504770
CCOC(=O)c1cnc(NCc2ccccc2)s1	0.64	-0.2
CC1(C)NC(=O)N(CCOc2ccc(F)cc2)C1=O	-0.015	1.9
COc1ccc2c(CC(=O)OCc3c(C)noc3C)coc2c1	.	-0.35
Cn1c(C(=O)NCCCN2CCN(c3ccccc3F)CC2)cc2c(=O)[nH]c3ccccc3c21	0.77	-0.05
CC(C)(C)OC(=O)N1CCCN(S(=O)(=O)c2ccc(Cl)cc2)CC1	0.025	-0.5
O=C(Nc1cccc([N+](=O)[O-])c1)/C(=C/c1cccc([N+](=O)[O-])c1)NC(=O)c1ccccc1Br	0.03	.
COc1cc(CO)c(Br)cc1O	0.27	0.15
O=C(/C=C/c1nc2ccccc2s1)OCC(=O)N1CCCC1=O	.	-0.65
CC1=C2C(=O)CCCC2=Nc2ccccc2N1	-0.29	0.55
Cc1nc2c(sc3nc4c(cc32)COC(C)(C)C4)c(=O)o1	-0.06	.
CCOC(=O)c1c(C)[nH]c(C)c1S(=O)(=O)NCC(=O)N1CCN(c2ccccc2)CC1	-0.35	-0.6
CN(C)c1nc(C23CC4CC(CC(C4)C2)C3)cs1	.	0
COc1ccc(C2CC(C(F)(F)F)n3ncc(C(=O)N4CCN(C(c5ccccc5)c5ccccc5)CC4)c3N2)cc1 (stereo not given)	-1.6	.
Cc1cccc(C(=O)N2CCc3c([nH]c4ccccc34)C2c2ccc(Cl)cc2)c1 (stereo not given)	-0.86	.
COc1ccc(N=C2NC(=O)/C(=C/c3c(OC)ccc4ccccc34)S2)cc1	-1.1	.
O=C(CCC(=O)N1CCC(N(C2CC2)S(=O)(=O)c2ccc(Cl)cc2)CC1)NCC1CCCO1 (stereo not given)	-1.2	.
Cc1ccccc1C(=O)N(c1cc(C(F)(F)F)cc(C(F)(F)F)c1)c1nc2ccccc2s1	0.92	.
Cc1ccc2onc(OC(=O)NC(C)(C)C)c2c1	0.58	-0.35
CCCS(=O)(=O)c1c(S(=O)(=O)CCC)c2c3ccccc3ccn2c1C(=O)c1ccc(C)cc1	0.21	.
O=C(NCCSc1ccccc1)c1ccco1	-0.65	-0.6
Cc1ccc(/C(O)=C2/C(=O)C(=O)N(CCN(C)C)C23C(=O)N(C)c2ccccc23)cc1 (stereo not given)	2.3	-0.55
CN(C(=O)COCc1cc(-c2ccco2)on1)C1CCCCC1	-0.08	0.25
O=c1oc(-c2ccc(Cl)c(Cl)c2)nn1-c1ncc(C(F)(F)F)cc1Cl	-0.96	.
COc1ccc(OC)c(NC(=O)c2cc3nc(-c4ccc(OC)c(OC)c4)cc(C(F)(F)F)n3n2)c1	-0.89	.
CCN(C(=O)c1cc2c(=O)oc3ccccc3c2s1)c1ccccc1	0.55	.
O=C1c2cccc(O)c2C(=O)c2c(O)cccc21	0.18	.
